Bioassay records deposited in PubChem by National Center for Advancing Translational Sciences (NCATS).
Sfp PPTase inh = Sfp phosphopantetheinyl transferase inhibition; AID 1490; 3.5% of 310,000 active; Biochemical Sfp PPTase activity, qHTS; Potency, µM, without a hit: max response, negative = inhibition, usual class: inhibitors; active = well fitted inhibition curve with a large enough effect; inconclusive = small, poorly fitted or top-dose-only effect, or another doubt; inactive = no such curve, though single readings can be large or run the other way;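 note: the enzyme is Sfp with the accession as filed and its product quenches rhodamine fluorescence; potency is the fitted concentration of half-maximal effect; 0% = enzyme reaction without inhibitor and -100% = no enzyme wells; top concentration of the series not given in the record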
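Fluorescence-quenching assay: 15 nM Sfp-PPTase preincubated 15 min at room temperature with compound, then 5 uM rhodamine-CoA and 12.5 uM BHQ-2-labelled YbbR peptide added. Fluorescence (ex 525/em 598 nm) read at start and after 30 min; difference gives rate.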
ClpP mod = qHTS Assay for Activators of ClpP. ATP-dependent Clp protease proteolytic subunit (Bacillus subtilis (strain 168)), P80244. purified B. subtilis ClpP, FRET peptide cleavage, 20 min. Potency, µM (highest dose often 57.5 µM), inactives show at the highest dose activity change, negative = active. 1.9% of 340,000 active. AID 651965, 2013; active = well fitted falling curve with a large enough effect; inconclusive = small, poorly fitted or top-dose-only effect; inactive = no such curve, though single readings can be large or run the other way; note: potency is the fitted concentration of half-maximal effect; the source files actives as falling curves though it sought activators and does not explain the sign; nearly all actives have a fitted effect of over 65% in size; many hits overshoot -100%
Target sequence (P80244 whole entry, looked up): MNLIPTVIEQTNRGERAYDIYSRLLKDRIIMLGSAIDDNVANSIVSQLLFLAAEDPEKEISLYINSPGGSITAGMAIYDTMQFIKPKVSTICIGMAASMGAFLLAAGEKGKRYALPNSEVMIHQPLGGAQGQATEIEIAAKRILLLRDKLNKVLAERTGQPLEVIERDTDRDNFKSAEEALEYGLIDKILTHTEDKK
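Purified B. subtilis ClpP, 10 microg/mL final in Tris/HCl pH8 with KCl, BSA, glycerol and Tween-20, cleaved an Abz/nitrotyrosine-quenched decapeptide. Fluorescence (ex 320, em 430) was read at 0 and 20 min at room temperature. Delta was normalized to 5.8 microM ADEP and DMSO/no-enzyme controls.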
gsp antag = antagonizes gsp, the McCune-Albright syndrome mutation; 0.4% of 340,000 active; Potency, µM (doses to about 76.9 µM), for inactives: at the top dose activity change, negative = inhibition, actives largely listed as inhibitors; gsp-mutant cells, cAMP HTRF, 30 min; control for the full effect not named in the record; active = falling curve of any shape with a large fitted effect; inconclusive = falling curve, mostly with a smaller effect; inactive = flat or rising curve; cell line not stated here;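 note: intracellular cAMP measured with PDE inhibitor Ro 20-1724 present during compound exposure; potency is the fitted concentration of half-maximal effect; % is set by controls: 0 for no effect and ±100 for the full control effect; nearly all actives have a fitted effect of over 65% in size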
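Cells, 2000/well, grown 16–24 h in DMEM 10% FBS with 0.5 mg/ml G418, then compounds plus […] (300 uM addition stock), 30 min at 37C. cAMP read by HTRF (cAMP-d2 and anti-cAMP antibody-K in lysis buffer) after 30 min RT.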
TRPML1 blocker = blocks the human TRPML1 channel; activity change, negative = inhibition, % (concentration not given with the values); 0.02% of 390,000 active; TRPML1-inducible cells, Ca2+ dye fluorescence, FDSS; active compounds read low; inhibition of EC80 agonist-evoked calcium signal; in the data active means activity change below about -50%; inconclusive means about -30% to -50%; inactive means above about -30%;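 note: stimulus is agonist 54-4 at its EC80 concentration; % is set by controls: 0 for no effect and ±100 for the full control effect; the text of the record puts the active cut at -80%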
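TRPML1-DL cells, Tet-induced overnight (~16 h, 37 °C) at 1,500 cells/well, were loaded with Ca8 no-wash dye plus quencher for 45-90 min at room temperature. Compounds were pinned during FDSS kinetic reading; agonist 54-4 at EC80 (4 uM final) then added.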
Menin-MLL FL inh = inhibitors of human menin-MLL interaction, wild-type MLL peptide; Fluorescence polarization, fluorescein-MLL peptide displacement from menin; FP activity change, % at 61.4 µM; 290,000 tested, under 10 active; inconclusive = falling polarisation curve, or a change in total fluorescence; inactive = total fluorescence flat and polarisation flat or rising; no compound was filed as active; the % refers to the polarisation; negative = inhibition;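 note: % of control where 0% means no effect; inhibitors lower the polarisation; unlabelled MLL peptide was the positive control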
TRPV1 PAM = potentiators of human vanilloid receptor 1 (TRPV1); Q8NER1; TRPV1-expressing cells, Fluo-8 calcium influx, capsaicin EC20 potentiation; host cell line not named in the record; control for the full effect not named in the record; potentiation, % at 8.33 µM; 0.02% of 320,000 active; AID 540277; active means potentiation above 80%; inconclusive means 30% to 80%; inactive means below 30%; note: 0% is about no effect
Target sequence (Q8NER1 whole entry, looked up): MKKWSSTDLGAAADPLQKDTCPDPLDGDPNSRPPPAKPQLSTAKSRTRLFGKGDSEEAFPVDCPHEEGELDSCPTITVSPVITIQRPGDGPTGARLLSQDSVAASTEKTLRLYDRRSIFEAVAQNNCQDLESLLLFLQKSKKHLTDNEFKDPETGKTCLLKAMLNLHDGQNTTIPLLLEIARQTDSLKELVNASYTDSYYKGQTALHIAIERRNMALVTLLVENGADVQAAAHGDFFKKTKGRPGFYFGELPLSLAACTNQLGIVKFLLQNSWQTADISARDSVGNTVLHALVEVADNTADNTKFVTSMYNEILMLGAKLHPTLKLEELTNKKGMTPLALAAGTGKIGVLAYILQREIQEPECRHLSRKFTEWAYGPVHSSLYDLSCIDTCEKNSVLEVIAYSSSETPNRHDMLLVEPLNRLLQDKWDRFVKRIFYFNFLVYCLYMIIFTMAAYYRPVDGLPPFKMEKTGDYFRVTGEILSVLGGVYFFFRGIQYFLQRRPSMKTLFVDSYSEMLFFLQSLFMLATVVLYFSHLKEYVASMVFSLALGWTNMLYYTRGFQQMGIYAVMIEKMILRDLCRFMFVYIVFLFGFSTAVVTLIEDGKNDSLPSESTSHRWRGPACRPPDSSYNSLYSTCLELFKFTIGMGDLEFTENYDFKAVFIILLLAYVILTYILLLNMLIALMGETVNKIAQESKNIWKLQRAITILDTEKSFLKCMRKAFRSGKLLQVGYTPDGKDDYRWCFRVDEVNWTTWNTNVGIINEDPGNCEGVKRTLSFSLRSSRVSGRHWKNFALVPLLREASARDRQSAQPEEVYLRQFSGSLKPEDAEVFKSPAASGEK
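Cells expressing TRPV1 were dye-loaded with Fluo-8 and read kinetically: 10 s baseline, 3 min after compound (agonist portion), then 2 min after EC20 capsaicin (allosteric enhancer portion). Calcium-bound dye fluorescence at 480/520 nm.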
gsp agonist = gsp mutant agonism; gsp mutant cells, cAMP HTRF, 30 min; control for the full effect not named in the record; Potency, µM (series often up to 76.9 µM), for inactives: at the top dose activation (cAMP increase), hits mostly activators; 0.13% of 340,000 active; AID 624287; active = well fitted activation curve with a large enough effect; inconclusive = small, poorly fitted or top-dose-only effect, or another doubt; inactive = no such curve, though single readings can be large or run the other way; cell line not stated here;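 note: phosphodiesterase inhibitor Ro 20-1724 added with compounds to block cAMP breakdown; potency is the fitted concentration of half-maximal effect; nearly all actives have a fitted effect of over 60% in size; about a fifth of the inactives were tested at one dose only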
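Cells stably selected in G418 were plated at 2000/well, grown 16-24 hr, then given compounds in DMSO with the PDE inhibitor […] (300 uM solution added) for 30 min at 37C; cAMP was read by HTRF.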
Numbers without * were called inactive; ? = inconclusive; . = no result given; & = joins results of further samples; [ ] = dose if it differs, or a comment.

item	SMILES	TRPV1 PAM	Menin-MLL FL inh	ClpP mod	TRPML1 blocker	Sfp PPTase inh	gsp antag	gsp agonist
1	CCN(Cc1ccccc1)C(=O)c1ccc(NC(=O)c2ccc(OC)cc2)cc1	-3.1	-0.8	-1.4%	3.6	-2.0%	?	2.0%
2	O=C(Nc1cccc(C(F)(F)F)c1)c1cccnc1N1CCCC1	23.5	-2.5	-10.0%	-5.2	14.5%	-1.0%	?
3	COc1cc(C(=O)N2CCC(n3c(C)nc4cc(F)ccc43)CC2)cc(OC)c1OC	-50.0	0.5	?	-6.0	-0.6%	-3.2%	-10.0%
4	COc1cc2c(cc1OC)CN(C(=O)CSc1nnc3scc(-c4ccccc4)n13)CC2	19.4	0.7	-6.9%	42.5	70.8µM*	-6.5%	-17.5%
5	Cc1c(NC(=O)c2ccc([N+](=O)[O-])o2)cccc1-c1nc2ncccc2o1	-6.1	-1.7	.	25.4	6.2%	-9.0%	16.6%[15.4 µM]
6	CC(C)COc1ccc(-c2nn(-c3ccccc3)cc2C(=O)Nc2nccs2)cc1	11.3	2.6	?	-3.1	14.9%	2.4%	11.3%
7	COc1ccccc1NC(=O)N(C)C[C@@H]1OCc2cnnn2CCCC(=O)N([C@@H](C)CO)C[C@@H]1C	.	.	0.6%	-5.8	.	.	?
8	Cc1ccc(C=Nc2ccc(N(C)C)cc2)o1	-5.4	12.4	0.1%	0.5	?	?	-33.4%[inhibitor]
9	CCCCCN(C(=O)CCC(=O)OCCOc1ccc(OCC)cc1)c1c(N)n(CCCC)c(=O)[nH]c1=O	-1.4	.	0.4%	2.7	.	3.5%	-7.8%
10	Cc1oc(-c2ccccc2F)nc1CS(=O)(=O)CC(=O)N1CCOCC1	-15.9	0.6	-11.9%	41.6	16.8%	2.1%	17.6%
11	N/C(=N\O)c1ccc(Cl)cc1Cl	-1.6	3.3	0.5%	?	1.3%	8.4%	-22.7%
12	Cc1ccccc1N1C(=O)N(c2cccc(C(F)(F)F)c2)C2CS(=O)(=O)CC21 (configuration not stated)	4.8	-2.7	-1.2%	13.6	9.1%	3.5%	2.1%
13	COc1ccccc1S(=O)(=O)Nc1cc(C)nn1-c1ccc(C)cc1	-8.1	.	.	-7.8	0.3%	-9.7%	-0.1%
14	Nc1cccc(-c2nc3ncccc3o2)c1	-2.4	-0.3	0.3%	12.9	2.9%	3.6%	-2.0%[15.4 µM]
15	COc1cc(NC(=O)OCc2ccccc2)c2ncccc2c1	.	.	.	45.9	.	-11.7%	21.9%
16	CN(C(=O)c1ccc(NC(=O)Cc2ccc(NC(=O)C3CCN(C(=O)C4CC4)CC3)cc2)cc1)C1CCCC1	.	.	-5.2%	-1.6	.	-1.7%	.
17	Nc1[nH]c(=S)[nH]c(=O)c1-c1ccccc1	-13.8	4.5	-3.8%	-5.1	-74.6%	-15.1%	13.0%
18	COc1cccc(-c2nnc(NC(=O)c3ccc(S(=O)(=O)N4CCOCC4)cc3)o2)c1	-1.5	6.5	-0.8%	12.6	7.3%	-21.3%	-2.7%
19	CC(C)c1ccc(OCC(=O)Nc2ccccc2C(=O)N2CCOCC2)cc1	3.4	.	2.2%	-17.3	10.3%	-0.5%	12.8%[15.4 µM]
20	O=C(N/N=C\c1ccc(F)cc1)c1cc(OCC(F)(F)F)ccc1OCC(F)(F)F	-17.9	5.0	1.9%	-11.8	14.0%	10.0%	-85.8%[inhibitor]
21	CCC(NC(=O)c1ccccc1Br)c1ccccc1 (configuration not stated)	-6.8	-4.5	.	40.8	0.1%	7.0%	-0.2%[15.4 µM]
22	CCOc1ccc(N(CC(=O)NC(C)(C)C)S(=O)(=O)c2c(C)noc2C)cc1	-31.2	-2.4	1.0%	3.9	-14.3%	4.2%	-36.5%[inhibitor]
23	Cc1ccc(S(=O)(=O)N2CCC(C(=O)OCC(=O)NCc3cccc(Cl)c3)CC2)cc1C	.	.	1.0%	20.9	.	-6.6%	-4.7%
24	O=C(CCSc1ccccc1)NCCN1CCOCC1	-2.3	1.4	0.8%	0.4	-11.8%	-2.5%	9.2%
25	COC(=O)C1OC(OC2CC[C@]3(C)C(CC[C@@]4(C)[C@@H]3CC=C3[C@@H]5CC(C)(C)CC[C@]5(C(=O)OC5OC(CO)C(O)C(O)C5O)CC[C@]34C)C2(C)C)C(O)C(O)C1O[C@H]1OCC(O)C(O)C1O (some centres not stated)	.	.	3.0%	-17.2	.	0.1%	.
26	Cn1c(=O)cc(Nc2ccccc2)[nH]c1=O	-5.8	3.5	-0.6%	10.2	10.3%	-8.8%	-4.2%[15.4 µM]
27	Cc1ccc(NC(=O)c2cc(N3C(=O)C=CC3=O)ccc2N2CCOCC2)cc1Cl	-5.7	-0.1	2.0%	-18.4	3.98µM*	18.4%	2.2%
28	O=C(Cc1ccc([N+](=O)[O-])cc1)NCc1ccccn1	3.6	2.9	.	-10.9	6.9%	8.9%	8.5%
29	COC(=O)Cn1c(=O)c2c(nc3n2CCCN3Cc2ccccc2)n(C)c1=O	16.1	6.7	.	-8.3	7.6%	-11.2%	11.1%
30	CN1CCC(=NNC(=O)c2ccc(N(Cc3ccccc3Cl)S(C)(=O)=O)cc2)CC1	9.8	1.6	-3.8%	-20.6	16.6%	?	28.3%
31	CCC1CCCCN1c1nc(-c2cccc(OC)c2O)nc2ccccc12 (configuration not stated)	-6.6	-0.4	-3.8%	63.7	-8.1%	-22.4%	-52.1%[inhibitor]
32	CCOc1ccc(CCNC(=O)C2CCCN(c3nn4c(=O)cc(C)nc4s3)C2)cc1OCC (configuration not stated)	6.1	1.7	-1.0%	30.9	7.0%	-2.0%	-41.8%[inhibitor]
33	Cc1ccc(-c2nnn(CC(=O)N(c3cccc(F)c3)C(C(=O)NC3CCCC3)c3ccco3)n2)o1 (configuration not stated)	-8.7	0.3	0.5%	10.9	9.6%	-6.0%	-1.4%
34	Cc1cc(C)cc(C(=O)NC(CC(N)=O)c2ccc(NCC3CC3)c([N+](=O)[O-])c2)c1 (configuration not stated)	-0.1	-7.2	-1.3%	6.4	6.3%	7.2%	.
35	Cc1cc(N2CCN(S(=O)(=O)c3ccccc3)CC2)nc2c(C)cccc12	11.1	-4.7	?	43.1	2.0%	1.4%	27.4%
36	CCOC(=O)CN(C(=O)COc1nc(-c2ccccc2)cc(C)c1C#N)c1ccccc1	-7.4	0.9	.	-6.8	16.9%	-3.0%	13.2%
37	CCC(C(=O)NCCCN1CCN(C)CC1)n1nc(C)c2sc3ccccc3c2c1=O (configuration not stated)	6.3	-1.9	3.6%	4.6	12.7%	11.3%	35.2%
38	O=C(OCc1ccccc1)c1ccccc1	.	-1.2&4.2	-0.3%	.	-9.0%&-1.1%	3.6%	.
39	O=C(NC(Cc1ccccc1)C(=O)O)c1ccco1 (configuration not stated)	3.7	4.7	.	5.7	-3.3%	5.6%	-5.6%[15.4 µM]
40	Cc1sc(N/N=C/c2cc([N+](=O)[O-])ccc2O)nc1-c1ccccc1	3.4	-5.1	0.6%	20.6	-4.4%	19.9%	-7.1%
41	COc1ccc(Nc2oc(-c3cccs3)nc2C#N)cc1	11.2	3.5	14.1µM*	-2.4	?	-14.7%	11.4%
42	CCOC(=O)N1CCN(CCC(=O)Nc2cc(C)ccc2C)CC1	6.3	8.3	-0.6%&-1.4%	7.9&-10.7	1.0%	3.3%	-20.1%
43	CCOC(=O)C1CCN(C(=O)Cn2c(=O)oc3cc(S(=O)(=O)N4CCCC4)ccc32)CC1	-9.2	-4.6	0.7%	22.1	14.4%	-8.8%	23.1%
44	COc1ccc(NC(=O)Cn2c(=O)n(CCC(=O)NCC3CCCO3)c(=O)c3cc(OC)c(OC)cc32)cc1 (configuration not stated)	0.9	0.3	-17.3%	-13.3&-7.1	9.8%	5.5%	3.0%[15.4 µM]
45	Nc1nc(SCC(=O)NC2CCCCC2)[nH]c(=O)c1-c1ccccc1	6.0	5.1	0.6%	-11.0	14.5%	3.0%	-0.5%
46	N/C(=N\c1nc2c(c(=O)[nH]1)CCC2)Nc1ccccc1C(F)(F)F	5.1	4.4	-13.7%	20.8	-12.4%	3.1%	-6.0%
47	Cc1cccc(NC(=S)N2CCCC2)c1	3.2	2.0	0.5%	1.6	-5.2%	2.6%	?
48	C1CCN(CCCNC2C3CC4CC(C3)CC2C4)C1 (configuration not stated)	-3.8	0.7	0.6%	19.1	15.7%	10.7%	-6.9%
49	Cc1cccc(C)c1NC(=S)N(CCCN1CCN(C)CC1)Cc1cccs1	-6.9	-4.7	.	3.9	-25.3%	-3.5%	6.0%[15.4 µM]
50	CCOCCCNC(=O)CCc1nnc2ccc(N3CCCCC3)nn12	0.6	4.2	-0.7%	3.8	9.4%	10.1%	?
51	O=C(/C=C/c1ccccc1)N/C(=C/c1ccccc1)C(=O)NCCCO	5.0	5.0	-1.1%	-13.9	9.9%	9.8%	-0.9%
52	C/C(=N\NC(=O)Cc1ccccc1)c1cccs1	20.2	-2.7	-0.4%	15.7	-2.8%	-0.1%	-7.0%
